E coli growth = inhibitors of Escherichia coli growth; 330,000 compounds, 0.21% hits; OD600, 23 h; active compounds read low; OD600 absorbance (concentration not given with the values);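 active = OD600 absorbance below the run mean of sample wells minus 3.6 SD, in any replicate, cut at about 0.56 in these data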;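 also: stock transfer was 300 nL into about 60 µL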
LANA-H2A inh = blocks KSHV LANA binding to histone H2A/H2B. Q9QR71. cell-free LANA-H2A/H2B peptide, fluorescence polarization. inhibition, % (test concentration not listed). 320,000 compounds, 0.6% hits; in the data active = inhibition mostly above about 10%, no sharp cut-off; inactive = mostly below about 6.7%;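 also: stock transfer was 7.5 nL into about 10 µL; 0% = median of vehicle wells and 100% = median of positive control wells; one replicate is shown; the record names a cut of 25% in any replicate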
ALR inh = blocks human ALR sulfhydryl oxidase activity | purified ALR, DTT oxidation, H2O2 HRP-luminol luminescence | inhibition, % (concentration not given with the values) | 290,000 compounds, 3.8% hits;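 active = mean and each replicate at 75% or more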;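 also: stock transfer was 7.5 nL into about 7.5 µL; 0% = neutral wells and 100% = wells with inactivated enzyme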
Beta2AR agonist = agonists of human beta-2 adrenergic receptor inducing internalization; 340,000 compounds, 0.43% hits; Am2.2-beta2AR cells, FAP receptor internalization, flow cytometry; reference of the scale not given here; P07550; response, % (concentration not given with the values); AID 504454;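 active = response above a set limit, near 3 SD of response in nonfluorescent compounds, cut at about 42% in these data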;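 also: stock transfer was 100 nL into about 11 µL; a reference agonist was the positive control; negative values mostly stem from fluorescent compounds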
FGF22 binding = shifts melting point of recombinant human FGF22 | 340,000 compounds, 1.5% hits | calls only at 9.99 µM | recombinant FGF22 thermal shift, SYPRO orange fluorescence; percent of sucrose octasulfate shift, DMSO zero | Q9HCT0;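 active = melting point raised past a set limit in the mean and every replicate; three in four hits are not shown here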
Target sequence (Q9HCT0 whole entry, looked up): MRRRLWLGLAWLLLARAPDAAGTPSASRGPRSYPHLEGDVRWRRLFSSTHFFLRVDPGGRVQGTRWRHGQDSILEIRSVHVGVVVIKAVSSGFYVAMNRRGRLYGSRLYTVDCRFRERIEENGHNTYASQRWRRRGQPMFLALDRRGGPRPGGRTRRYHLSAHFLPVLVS
HNF4A DNA FP = change in binding of human HNF4 alpha to DNA; HNF4a-FITC DNA binding, fluorescence polarization, 1 h; activity change, % at 10 µM; 360,000 compounds, 0.3% hits; AID 1224865; in the data active = activity change above about 30%, passing the limit was not always enough;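 also: controls were the assay level and a saturating level of protein; the project sought stronger binding though the title names inhibitors; some compounds called inactive have numbers as strong as hits; positive values seem to mean higher polarization but the record does not say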
Target sequence (P41235 whole entry, looked up): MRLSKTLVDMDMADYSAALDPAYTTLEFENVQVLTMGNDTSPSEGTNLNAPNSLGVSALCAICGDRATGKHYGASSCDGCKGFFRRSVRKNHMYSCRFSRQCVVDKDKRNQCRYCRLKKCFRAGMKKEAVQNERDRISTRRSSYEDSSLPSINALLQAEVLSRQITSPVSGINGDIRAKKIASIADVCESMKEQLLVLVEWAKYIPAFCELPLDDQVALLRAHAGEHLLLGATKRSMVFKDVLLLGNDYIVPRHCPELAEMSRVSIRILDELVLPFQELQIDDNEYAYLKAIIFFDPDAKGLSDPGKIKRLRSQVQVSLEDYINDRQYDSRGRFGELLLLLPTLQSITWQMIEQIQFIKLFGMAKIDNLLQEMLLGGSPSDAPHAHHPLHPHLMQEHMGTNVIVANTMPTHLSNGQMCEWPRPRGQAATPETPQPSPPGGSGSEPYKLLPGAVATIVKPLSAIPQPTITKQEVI
UCH37 inh = inhibitors of human deubiquitinating enzyme UCH37 | Q9Y5K5 | purified proteasome/UCH37, Ub-AMC cleavage fluorescence | inhibition, % (no concentration beside the values) | 330,000 compounds, 0.33% hits | AID 588478;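 active = mean of two replicates above 20%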;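 also: 0% = compound-free wells with enzyme and 100% = wells lacking proteasome; stock transfer was 100 nL into about 20 µL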
Target sequence (Q9Y5K5 whole entry, looked up): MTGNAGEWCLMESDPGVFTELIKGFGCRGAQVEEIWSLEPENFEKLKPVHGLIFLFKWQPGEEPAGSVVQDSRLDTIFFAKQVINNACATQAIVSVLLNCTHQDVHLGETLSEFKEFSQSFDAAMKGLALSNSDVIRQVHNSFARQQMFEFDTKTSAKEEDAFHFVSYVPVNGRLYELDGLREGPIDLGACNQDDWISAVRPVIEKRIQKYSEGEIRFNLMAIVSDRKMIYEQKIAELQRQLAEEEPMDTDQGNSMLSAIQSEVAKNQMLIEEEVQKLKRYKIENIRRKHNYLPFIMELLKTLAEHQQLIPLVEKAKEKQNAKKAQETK
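system = Proteasome-associated human UCH37 deubiquitinase | amount = 0.15 nM proteasome as dispensed | medium = pH 7.4 Tris-HCl (50 mM) with ovalbumin, ATP-MgCl2, DTT | incubation = 30 min preincubation with enzyme, 25 min cleavage at room temperature | detection = AMC fluorescence 355/460 nm | read-out basis = percent inhibition | controls = no-proteasome and no-compound wells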
* = called active by the depositor; i = inactive; . = not tested or not shown; + = active, no number.

SMILES	E coli growth	LANA-H2A inh	ALR inh	Beta2AR agonist	FGF22 binding	HNF4A DNA FP	UCH37 inh
Cc1cc(=O)oc2cc(OCC(=O)Nc3ccc4[nH]c(=O)[nH]c4c3)ccc12	.	4.6	-15	-3	.	0.1	.
Cc1ccc(CN(C(=O)C(F)(F)F)C(C(=O)NC2CCCCC2)c2ccco2)cc1 (centres undefined)	0.76	-1.3	-1	19	.	0.5	1.3
O=C(O)C1C2C=CC3(CN(C4CCCC4)C(=O)C13)O2 (centres undefined)	0.77	2.9	2	9	i	1.3	3.8
COc1ccc(N2CCN(C(=O)/C=C/c3ccco3)CC2)cc1	0.68	-12	23	4	i	2.6	4.4
COC(=O)CCC(=O)NNC(=O)Cc1ccccc1	0.72	-3.3	.	-2	i	-0.1	-1.7
Cn1c(=O)cc(SCC(=O)NCCCN2CCN(c3ccc(F)cc3)CC2)c2ccccc21	0.67	0.6	38	-3	.	-4.1	0.1
COc1ccccc1N1CCN(C(=O)c2ccco2)CC1	0.67	17*	38	-2	i	2.7	4.8
CCCCn1c(N)c(N(CCOC)C(=O)c2ccc(NC3CC3)c([N+](=O)[O-])c2)c(=O)[nH]c1=O	0.66	-3.6	0	3	i	-1.3	3.9
CCCNC(=O)CN1C(=O)NC(CC)(c2ccc(F)cc2)C1=O (centres undefined)	0.72	1.7	-3	-6	i	-5.6	4.9
CCN(C[C@H]1N[C@@](CC)(C(=O)OC)[C@H]2C(=O)N(C)C(=O)[C@@H]12)C(=O)c1ccc(C(C)(C)C)cc1	0.69	.	.	10	i	2.7	3.6
Cc1nnc(NC(=O)C2CCN(S(=O)(=O)c3ccc(F)c(Cl)c3)CC2)o1	0.65	.	.	-7	i	4.5	0.2
CC(=O)Oc1ccc(/C=N/NC2=NS(=O)(=O)c3ccccc32)cc1	.	-0.4	64	1	i	-1.0	.
Cn1c(=O)[nH]c(=O)c2c1nc(N1CCCCC1)n2CC(O)COc1ccccc1 (centres undefined)	0.67	0.3	-37	-6	i	3.8	2.5
CCOC(=O)C(Cc1ccccc1)NC(=O)CCc1nnc2ccc(N3CCCCC3)nn12 (centres undefined)	0.69	0.9	-3	26	i	3.1	6.4
Cc1ccc(C(=O)N/N=C\c2sccc2C)cn1	.	-0.1	0	-11	i	-0.5	.
CCN(CC(=O)NCc1ccccn1)S(=O)(=O)c1cc(Cl)ccc1Cl	0.64	-2.4	2	-3	i	-0.1	3.9
CCOC(=O)c1c(S(=O)(=O)NCC(=O)N2CCN(c3ccc(F)cc3)CC2)c(C)n(C)c1C	0.58	-1.5	10	8	i	-6.9	1.0
COc1ccc(S(=O)(=O)Nc2ccc3c(c2)CCC3)cc1	0.71	8.7	.	11	i	-2.7	1.1
C/C(CC(=O)N(C(C)C)C(C)C)=N\NC(=O)c1ccccc1Br	.	-4.1	-8	-8	.	-1.9	.
O=C(Nc1ccccc1)Nc1ccc2nnsc2c1	0.4*	-0.5	67	5	+	3.6	2.4
Cc1ccc2nc(N(CCN(C)C)C(=O)c3cc(Cl)sc3Cl)sc2c1	0.67	1.0	96*	-5	.	1.0	-1.0
CC1(NC(=O)c2ccccc2)CCN(CCc2cccs2)C1=O (centres undefined)	0.66	-5.5	-7	-1	i	2.6	-1.4
Cc1cccc(N2N=C(C(=O)OCC(=O)c3ccccc3)CCC2=O)c1	0.65	-3.3	-4	-4	i	3.1	1.1
COc1ccc(CCNC2CCC(c3ccccc3)CC2)cc1 (centres undefined)	0.62	0.0	-4	4	i	1.2	4.6
O=C(NCCCCCNC(=O)c1ccco1)c1ccco1	0.74	3.8	.	2	.	-2.2	6.0
Cn1c(=O)c2sc3c(c2n(CC(=O)Nc2ccccc2)c1=O)COC(C)(C)C3	0.65	-1.3	-3	10	i	-4.5	-0.3
CCOc1ccc2c(c1)nc(C)n2C	0.67	0.7	-2	4	i	1.2	-1.6
COc1cc(S(=O)(=O)N2CCOCC2)ccc1NC(=O)COC(=O)COc1ccccc1	0.72	0.3	-7	3	i	1.6	2.6
Cc1cccc(-c2cc3nc(-c4ccccc4)cc(=O)n3[nH]2)c1	0.63	-2.1	3	12	i	1.8	-52
COc1cccc(NC(=O)CSc2nnc(CNC(=O)c3ccccc3)n2C)c1	0.69	-1.5	-1	-4	.	-0.4	2.2
CCN1C(=O)[C@H]2[C@@H](c3ccc(-c4ccc(F)cc4)c(OC)c3)N[C@@](Cc3ccccc3)(C(=O)OC)[C@H]2C1=O	.	-4.0	7	8	i	2.2	2.1
COc1cc2c(cc1OC)CN(c1nc(CN3CCCC3)nc3sc(C)c(C)c13)CC2	0.71	.	.	13	i	1.8	4.8
COc1ccc(NC(=O)CSc2nc3c(c(=O)[nH]2)CCC3)cc1OC	0.7	-0.6	57	9	.	0.2	2.1
Cc1cccc2sc(N(CCN3CCOCC3)C(=O)CCS(=O)(=O)c3ccccc3)nc12	0.68	2.4	.	9	i	-1.2	4.1
COc1ccc(CNC(=O)CN2CCC(NC(=O)c3ccccc3C)CC2)cc1	0.69	0.9	-11	5	i	-2.6	3.5
Cc1cnn(-c2ccc3nnc(-c4ccc(Cl)cc4)n3n2)c1	0.79	2.3	-2	-5	.	8.2	-37
C[C@H]1COC2=C1C(=O)C(=O)c1c2ccc2c1CCCC2(C)C	0.75	-0.7	7	16	.	-4.4	41*
O=C(Nc1ccc(N2CCCC2=O)cc1)c1cccc(F)c1	0.68	-3.6	-9	1	i	-1.4	2.2
COc1ccc(C2Nc3ccccc3C(=O)N2NC(=O)c2ccccc2)cc1OC (centres undefined)	0.67	3.7	-2	-7	i	1.3	-120
COc1ccc(OC)c(C(=O)COC(=O)c2cccnc2SC)c1	0.7	.	.	9	.	-0.7	-2.8
Cc1ccc(NC(=O)C2CC2C)c(Cl)c1 (centres undefined)	0.64	3.5	.	-2	i	-1.5	3.0
COc1ccc(C(=O)O)cc1NCc1cccnc1	0.66	2.9	4	3	i	3.0	3.1
CCCc1cc(C(=O)Nc2ccc(C#N)cc2)no1	0.65	0.5	.	-2	i	8.9	1.3
c1cc(N2CCCCC2)nc(N2CCCCC2)n1	0.7	.	.	-3	i	2.7	2.5
COc1ccccc1C1CCN(Cc2ccc(Cl)c(Cl)c2)CC1	0.67	-3.4	-9	24	i	2.9	0.7
Cc1ccc(-n2nnc3c(=O)n(Cc4cccc(C)c4)cnc32)cc1	0.73	6.8	13	2	i	1.6	5.3
COc1ccccc1C(=O)OCC(=O)NC(=O)NCc1ccccc1	0.65	0.3	-6	5	i	-0.4	1.8
Cc1c(-c2ccco2)[n+](=O)c2c(n1[O-])CCCCC2	0.68	0.5	-6	-2	.	-2.6	4.8

3 structures already listed, arranged by count of non-hydrogen atoms, high to low:
SMILES	E coli growth	LANA-H2A inh	ALR inh	Beta2AR agonist	FGF22 binding	HNF4A DNA FP	UCH37 inh
Cc1ccc(CN(C(=O)C(F)(F)F)C(C(=O)NC2CCCCC2)c2ccco2)cc1 (centres undefined)	0.76	-1.3	-1	19	.	0.5	1.3
COc1ccc(CNC(=O)CN2CCC(NC(=O)c3ccccc3C)CC2)cc1	0.69	0.9	-11	5	i	-2.6	3.5
COc1ccc(C(=O)O)cc1NCc1cccnc1	0.66	2.9	4	3	i	3.0	3.1

New compounds follow.
SMILES	E coli growth	LANA-H2A inh	ALR inh	Beta2AR agonist	FGF22 binding	HNF4A DNA FP	UCH37 inh
Cc1cc(=O)oc2cc(NC(=O)CCC(=O)O)ccc12	0.75	4.6	-2	10	.	-1.1	i
CC(C)C[C@H](NC(=O)C1CCN(S(=O)(=O)c2ccccc2)CC1)C(=O)NCc1ccncc1	0.7	-1.5	1	-3	i	-4.3	-1.7
O=C(Cn1nnc(-c2cccs2)n1)N1c2ccccc2Sc2ccc(C(F)(F)F)cc21	0.74	1.2	-18	10	.	2.2	3.7
COc1ccc(S(=O)(=O)N2N=C(C)Oc3ccccc3C2=O)cc1	0.73	4.0	3	-6	.	2.1	1.8
O=C(Cc1c(F)cccc1Cl)NNC(=O)c1cccs1	0.67	0.8	2	13	i	1.6	-2.1
Cc1ccc(C(=O)Nc2ccc(Cl)cc2C)c(Cl)c1	0.74	-2.1	-16	-6	i	-1.9	-1.0
COc1ccccc1-c1nc(C#N)c(N2CCN(C(c3ccccc3)c3ccccc3)CC2)o1	0.76	-5.3	-2	-2	.	-0.2	-18
C/C(=N\NC(=O)c1ccc(NS(=O)(=O)c2cccs2)cc1)c1ccc2ccccc2c1	.	-2.1	6	15	.	0.1	.
COc1ccc(NC(=O)Nc2ccc(F)cc2F)c(C)c1	0.7	6.4	-9	-2	.	-3.5	5.6
COc1cccc(C(=O)CSc2nnc(-c3cc(OC)cc(OC)c3)o2)c1	0.74	1.7	-12	7	.	4.5	1.9
CCOP(=O)(OCC)C(NC(=O)Nc1ccc(Cl)cc1)c1ccccc1 (centres undefined)	0.73	7.7	.	2	.	-1.1	4.7
CN(C)c1ccc(S(=O)(=O)N2CCCCC2)cc1NC(=O)CN1C(=O)NC2(CCCC2)C1=O	0.6	3.8	-8	-6	i	1.0	-2.9

Records listed so far that bear a hit mark in UCH37 inh:
SMILES	E coli growth	LANA-H2A inh	ALR inh	Beta2AR agonist	FGF22 binding	HNF4A DNA FP	UCH37 inh
C[C@H]1COC2=C1C(=O)C(=O)c1c2ccc2c1CCCC2(C)C	0.75	-0.7	7	16	.	-4.4	41*

Going on with the list.
SMILES	E coli growth	LANA-H2A inh	ALR inh	Beta2AR agonist	FGF22 binding	HNF4A DNA FP	UCH37 inh
COc1ccc(Nc2nc(-c3sc(N)nc3C)cs2)cc1	0.72	1.9	-4	5	.	6.2	7.7
Clc1cccc(/C(Cc2nc3ccccc3[nH]2)=N\Nc2ccccc2)c1	.	-3.1	31	9	i	4.8	.
C#CCNC(=O)C1=C[C@@H](C2CCCCC2)C[C@@H](OCCCCO)O1	.	0.1	-4	-7	i	4.3	-0.5
Cc1ccc(C(=O)N2CCc3ccccc32)o1	0.61	7.7	-5	-2	.	0.9	3.4
COc1ccc(S(=O)(=O)NCc2ccco2)cc1N(C)S(=O)(=O)c1ccccc1	0.71	0.9	-12	-3	i	0.6	-1.5
CCOC(=O)C1CCN(C(=O)C2CCN(S(=O)(=O)c3c(C)noc3C)CC2)CC1	0.7	-1.5	-2	-5	.	-3.8	0.4
Cc1ncoc1C(=O)Nc1ccc2c(c1)OCCO2	0.71	-1.9	-8	3	.	-2.1	-0.1
Cc1cc(C)c(S(C)(=O)=O)c(Oc2cccc(Cl)c2)n1	0.81	4.8	.	-12	.	-0.1	0.0
Cc1ccc(C(=O)N2CCC(C)CC2)cc1NC1=NC2CS(=O)(=O)CC2S1 (centres undefined)	0.77	-5.1	.	-2	i	-0.6	5.4
CCC(=O)Nc1cccc(NC(=S)NC(=O)c2ccccc2C)c1	0.64	3.0	3	-6	i	-2.7	-0.8
C[C@H](CO)N1C[C@H](C)[C@@H](CN(C)C(=O)Nc2ccc(C(F)(F)F)cc2)Oc2ccc(NC(=O)C3CCCCC3)cc2C1=O	0.7	.	1	4	i	3.6	5.5
Cc1ccc(C)c(N(C(=O)Cc2cccs2)C(C(=O)NC2CCCC2)c2ccc(C)o2)c1 (centres undefined)	0.69	-12	-1	-11	.	9.4	-2.3
COC(=O)c1ccc(NC(=O)C2CCCN2S(=O)(=O)c2ccc(OC)cc2)cc1 (centres undefined)	0.82	-6.9	0	-9	.	-3.0	4.4
O=C(N=C1SC2CS(=O)(=O)CC2N1c1cccc(Cl)c1Cl)C1CCCO1 (centres undefined)	0.71	-2.3	-2	2	i	1.8	1.6
Cc1ccc(N=C(N)N=C(N)N)c(C)c1	0.7	-14	-12	-2	i	-1.8	0.4
CNC(=O)NNC(=O)c1csc(Cc2c(Cl)sc3ccc(Cl)cc23)n1	0.6	2.5	22	-4	i	-0.7	2.4
O=C(O)CCC(=O)Nc1ccc(C(=O)N2CCCCC2)cc1	0.74	-4.1	6	3	.	-1.1	-0.8
O=C1C(=O)N(c2nccs2)C(c2ccccc2)/C1=C(\O)c1ccc2c(c1)OCCO2 (centres undefined)	.	-1.7	0	9	.	0.1	.
CC(Oc1ccc(Br)cc1)C(=O)Nc1ccncc1 (centres undefined)	0.69	0.0	-12	0	i	-5.8	-3.5

Source: PubChem (several laboratories)

The list is partial. The share of hits here may be higher or lower than overall.
